# Screens: PubChem, National Center for Advancing Translational Sciences (NCATS)
# Rango complex inh – prevents formation of the Rango-importin beta complex. Potency, µM (titrated, usually from 92.2 µM), for the others: top-dose inhibition of complex formation. Q14974. Rango CFP/YFP FRET sensor + importin beta, 45 min. 340,000 tested, 0.031% active; active = rising FRET ratio curve, often small or poorly fitted; inconclusive = mostly compound fluorescence or quenching in the first reads; inactive = flat curves in all reads;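 further: potency means the concentration at half of the fitted maximal effect; 0% = DMSO wells and 100% = buffer wells lacking importin beta; nearly all actives have a fitted effect of over 15% in size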
# Target sequence (Q14974 whole entry, looked up): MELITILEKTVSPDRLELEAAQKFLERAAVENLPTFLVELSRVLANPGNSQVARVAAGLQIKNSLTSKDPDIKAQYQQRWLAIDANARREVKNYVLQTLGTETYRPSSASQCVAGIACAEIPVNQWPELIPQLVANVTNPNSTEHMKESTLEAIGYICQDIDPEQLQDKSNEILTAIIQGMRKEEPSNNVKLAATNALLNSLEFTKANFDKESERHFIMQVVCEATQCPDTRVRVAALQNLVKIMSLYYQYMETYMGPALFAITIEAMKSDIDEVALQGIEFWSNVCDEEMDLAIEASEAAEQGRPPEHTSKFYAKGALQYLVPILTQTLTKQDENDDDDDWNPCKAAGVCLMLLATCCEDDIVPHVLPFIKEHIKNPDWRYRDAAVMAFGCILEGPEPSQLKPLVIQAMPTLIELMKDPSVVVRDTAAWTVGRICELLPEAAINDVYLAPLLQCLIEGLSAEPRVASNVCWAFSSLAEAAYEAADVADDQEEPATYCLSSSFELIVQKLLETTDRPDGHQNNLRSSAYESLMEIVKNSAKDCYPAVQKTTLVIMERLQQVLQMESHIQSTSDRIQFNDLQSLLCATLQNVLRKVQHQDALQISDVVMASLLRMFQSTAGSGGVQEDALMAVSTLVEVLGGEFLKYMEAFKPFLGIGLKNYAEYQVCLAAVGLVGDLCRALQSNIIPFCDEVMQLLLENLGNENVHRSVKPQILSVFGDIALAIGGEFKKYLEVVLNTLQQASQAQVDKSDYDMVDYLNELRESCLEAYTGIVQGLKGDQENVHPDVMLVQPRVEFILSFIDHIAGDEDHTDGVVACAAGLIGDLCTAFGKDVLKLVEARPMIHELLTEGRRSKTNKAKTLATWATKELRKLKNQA
#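 Inhibition scored from the CFP 486 nm/YFP 530 nm FRET ratio 45 min after adding 0.125 microM importin beta to 50 nM Rango biosensor preincubated 5 min with compound (room temperature, PBS with DTT, Tween-20, BSA). No-importin wells as positive control.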
# miR-21 FLuc – raises the signal of a miR-21 reporter | AID 2288 | Potency, µM (doses to about 38.3 µM), for the others: top-dose reporter change, positive = more light | HeLa miR-21 FLuc reporter, luciferase, 48 h | 340,000 tested, under 10 active; active = well fitted rising curve with a large enough effect; inconclusive = small, poorly fitted or top-dose-only effect; inactive = no such curve, though single readings can be large or run the other way;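 further: % of control where 0% means no effect; miR-21 action dims this reporter so a rising signal means less miR-21 action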
#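 HeLa miR-21-FLuc reporter line, endogenous miR-21; 2000 cells/well in DMEM/10% FBS; compound titration up to ~40uM final, 48 h, 37 degree Celsius; luciferase detection reagent, 15 min lysis, CCD luminescence.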
# GLA inh pH 4.5 – blocks human alpha-galactosidase A at pH 4.5. purified enzyme, 4-MU-alpha-Gal fluorescence, pH 4.5. activity change, negative = inhibition, % at 105 µM. 230,000 tested, under 10 active; inconclusive = small, poorly fitted or top-dose-only inhibition, or a rising curve; inactive = flat fitted curve, though single readings scatter; no compound was filed as active;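 further: 0% = full activity with enzyme and -100% = basal without enzyme; dose as in the result columns while the protocol names 77 µM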
# Rango dissoc inh – inhibition of RanGTP-driven Rango-importin beta dissociation. Biochemical FRET Rango-importin beta, RanGTP-induced dissociation. Potency, µM (highest dose often 46.1 µM), for the others: top-dose activity change, negative = inhibition. 340,000 tested, 0.071% active. O95149+P62826; active means falling FRET ratio curve, often poorly fitted, with flat reads before Ran was added; inconclusive means other falling curves, or compound fluorescence or quenching; inactive means flat or rising ratio curve;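 further: potency means the concentration at half of the fitted maximal effect; % of control where 0% means no effect; nearly all actives have a fitted effect of over 45% in size; -100% = wells without RanGTP and RCC1; the record marks most hits as doubtful in a second field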
#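 FRET read at 45 min, room temperature: inhibitors block the CFP/YFP signal rise when RanGTP (0.6 uM Ran, 2 mM GTP, 0.2 uM RCC1) frees Rango (0.1 uM) from importin beta (0.25 uM). Pre-read after 5 min compound exposure flags interference.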
# The depositor's hits bear a star; ? = inconclusive; . = not tested or not shown; & = joins results of further samples.
SMILES,Rango complex inh,miR-21 FLuc,GLA inh pH 4.5,Rango dissoc inh
CC(=O)c1cccc(NC(=O)c2ccc(N(C)S(C)(=O)=O)cc2)c1,-1.6%,-6%,3,19%
O=c1c2ccccc2nc(-c2cccs2)n1-c1cccc2ccccc12,4.9%,5%,-5,3%
C=CCOn1c(=O)c(-c2ccc(Br)cc2)[n+]([O-])c2ccccc21,2.0%,-1%,.,2%
Cc1ccc(C)c(SCC(=O)NC2CCS(=O)(=O)C2)c1 (centres undefined),2.4%,.,.,-4%
Cc1ccc(CSc2nnc(-c3cccs3)n2C)cc1,?,-53%,-1,9%
CC1(C)SCC2C(=O)N3C(CSC3(C)C)C(=O)N21 (centres undefined),-1.6%,-6%,3,-11%
CC(=O)Nc1ccc(NC(=O)c2ccccc2S(=O)(=O)c2ccc([N+](=O)[O-])cc2)cc1,8.5%,1%,-19,-11%
CSc1nc(C)c(CCOC(=O)c2cccc(Cl)c2)c(=O)[nH]1,1.4%,0%,-10,23%
c1ccc(-n2nnnc2OCCOc2nnnn2-c2ccccc2)cc1,0.5%,-1%,-8,6%
CC(C)c1ccc(NC(=O)C2CCN(S(=O)(=O)c3ccc4c(c3)NC(=O)CO4)CC2)cc1,1.1%,20%,.,13%
N=c1oc2cc(O)ccc2cc1C(=O)Nc1ccccn1,.,-14%,?,.
NC1=NC(=O)C2(COC(c3ccccc3Cl)OC2)S1 (centres undefined),-0.1%,-9%,5,-3%
COc1cc(C(=O)NCc2nnc(SCC(=O)c3ccc(Cl)cc3)o2)cc(OC)c1OC,2.2%,4%,.,-1%
CCCCN(C)C(=O)c1nc2ccccn2c1CN1CCN(c2ncccn2)CC1,0.1%,-2%,-1,-4%
O=C(CSc1nnc(CNc2ccc(F)cc2)n1CC1CCCO1)N1CCOCC1 (centres undefined),0.7%,-1%,.,-8%
CCCCCOC(=O)Cn1c(=O)oc2ccc(C)cc21,-4.6%,-4%,-1,16%
CON(c1nc(Cl)nc(N(C)C)n1)S(=O)(=O)c1ccccc1Cl,-1.2%,2%,-12,?
COc1cccc(NC(=O)Cc2nnc(SCCOc3ccccc3)n2C)c1,0.8%,-1%,3,-10%
Cn1c2c(c(=O)c3ccccc31)CCCC2,3.2%,-8%,.,0%
CCc1nc2ccc(C(=O)NCCc3ccccc3OC)cc2nc1CC,-10%,-14%&-5%,.,0%
COC(=O)C1=NN(c2ccccc2)C2(S1)SC(C(C)=O)=C(C)N2c1ccccc1 (centres undefined),-1.6%,-5%,5,10%
NC(N)=NS(=O)(=O)c1ccc(NC(=S)NC(=O)c2ccc3c(c2)OCO3)cc1,1.2%,-10%,7,-3%
Cc1ccc(C(=O)Cn2c(C(=O)O)cc3ccccc32)cc1,3.2%,-5%,.,16%
O=S(=O)(N1CCOCC1)n1nnc2ccccc21,3.4%,0%,-23,3%
CN1C(C(=O)NCc2ccccc2)CC2Cn3c(nc4ccccc43)C21 (centres undefined),2.8%,2%,1,1%

# The list goes on.
SMILES,Rango complex inh,miR-21 FLuc,GLA inh pH 4.5,Rango dissoc inh
COCCn1c(SCC(=O)Nc2nc(C)cs2)nnc1C(C)C,3.8%,3%,.,-1%
CCN(CC)c1ccc(C(=O)OCC(=O)Nc2cc3oc4ccccc4c3cc2OC)cc1,?,0%,3,19%
N/C(Cc1cccs1)=N\OC(=O)COc1ccc(Br)cc1,-1.6%,-19%,-5,0%
CCCCN1CC(CO)Oc2cccc(F)c2S1(=O)=O (centres undefined),-0.6%,.,.,-10%
O=C(CCNS(=O)(=O)c1ccc2[nH]c(=O)oc2c1)NCc1ccc(F)cc1,-3.0%,2%,.,1%
CCc1cccc(NC(=O)c2snc3c(=O)[nH]cnc23)c1,-0.4%,-30%,6,6%
CC(=O)Nc1ccc(OCc2ccc3c(c2)OCO3)cc1,0.2%,-47%,.,-12%
O=C(NC1CCCCC1)c1ccc(CNc2ccccc2)o1,1.1%,-7%,-2,-23%
CCOc1ccccc1N(CC(=O)Nc1ccc(S(=O)(=O)N2CCOCC2)cc1)S(=O)(=O)c1ccc(Cl)cc1,-1.4%,0%,-12,?
CC(C)CC(=O)OC1C(N2CCOCC2)c2c(ccc(/C=C/C(=O)N3CCOCC3)c2O)OC1(C)C (centres undefined),?,-12%,-15,?
COc1ccc(CCc2nnc(NS(C)(=O)=O)s2)cc1,3.5%,-3%,.,-7%
CCC(Oc1ccccc1)C(=O)NC1CCCCCC1 (centres undefined),6.5%,-2%,.,-15%
COc1ccccc1CN1C[C@@H]2C[C@@H](c3cccc(C)c3)N3CCC[C@@]23C1=O,1.4%,-4%,-6,-6%
COc1ccccc1-c1nnc(SCC(=O)N2CCCC2)o1,-1.0%,-44%,.,-15%
Cc1nnc(NC(=O)CSc2nnc(-c3ccco3)n2C(C)C)s1,0.5%,9%,.,24%
CCOC(=O)c1c2ccc(OCC(=O)N/N=C/c3ccc(Cl)cc3)cc2n2ccccc12,.,-6%,2,.
N#CCCN(Cc1ccncc1)C(=S)NC1CC2C=CC1C2 (centres undefined),0.2%,2%,-3,4%
COc1ccc(NS(=O)(=O)c2cccc(C(=O)N/N=C/c3cn(-c4ccccc4)nc3-c3ccccc3)c2)cc1,1.2%,-10%,3,3%
Cc1cccc(-n2c(O)c(C=Nc3ccc4c(c3)OCO4)c3ccccc3c2=O)n1,?,-6%,3,?
Cc1cccc(N2N=C(C(=O)Nc3nc(C)cs3)CCC2=O)c1,0.4%,-3%,-4,16%
O=C(CSc1nc2ccsc2c(=O)n1Cc1ccc(C(=O)O)cc1)NCC1CCCO1 (centres undefined),1.5%,-3%,-7,-13%
CCOc1cc(NC(=S)NCCCN2CCOCC2)c(OCC)cc1NC(=O)C1CCCCC1,3.8%,0%,5,-9%
COC(=O)C(C(=O)Nc1ccccc1C)C1CCCCCC1 (centres undefined),-4.7%,-3%,5,-1%
COc1cc(OC)cc(-c2sc3ccc(OC)cc3c2C#CC(C)(C)O)c1,0.5%,.,.,0%
O=C(Nc1ccnn1C1CCN(Cc2ccccn2)CC1)c1cccc(F)c1,?,-4%,.,-8%

# Part of the list above, reduced to miR-21 FLuc, Rango dissoc inh and Rango complex inh:
compound	miR-21 FLuc	Rango dissoc inh	Rango complex inh
N#CCCN(Cc1ccncc1)C(=S)NC1CC2C=CC1C2 (centres undefined)	2%	4%	0.2%
COC(=O)C(C(=O)Nc1ccccc1C)C1CCCCCC1 (centres undefined)	-3%	-1%	-4.7%
COc1ccccc1-c1nnc(SCC(=O)N2CCCC2)o1	-44%	-15%	-1.0%
CCC(Oc1ccccc1)C(=O)NC1CCCCCC1 (centres undefined)	-2%	-15%	6.5%

# (continued)
SMILES,Rango complex inh,miR-21 FLuc,GLA inh pH 4.5,Rango dissoc inh
CCOCCOC(=O)COc1ccc2c(-c3ccccc3)cc(=O)oc2c1,0.6%,-3%,-2,8%
CCOC(=O)C1CCN(S(=O)(=O)c2ccc3c(c2)CCN3C(=O)C2CCC2)CC1,-4.1%,1%,.,-2%
O=C(Cn1ncc2c3ccccc3n(Cc3ccccc3F)c2c1=O)N1CCN(c2ccccn2)CC1,-1.3%,2%,.,-5%
Fc1ccccc1/C=N/n1c(-c2cccnc2)n[nH]c1=S,-0.3%,2%,10,2%
COc1cccc(NC(=O)CNC(=O)c2ccccc2)c1,-0.5%,-44%,-6,-9%
CCOc1ccc(C(=O)O/N=C(\N)c2ccccn2)cc1,2.0%,?,.,-4%
CCOc1ccc(-n2c(N)c(-c3nc4ccccc4[nH]3)sc2=S)cc1,?,-8%,-1,?
CCOc1ccccc1NC(=O)CC1Nc2cc(C)c(C)cc2NC1=O (centres undefined),?,7%,1,?
CCCCN(C(=O)C(C)(C)Oc1ccc(Cl)cc1)c1c(N)n(CCC)c(=O)[nH]c1=O,0.5%,.,.,-3%
O=P(Nc1ccccc1)(Nc1ccccc1)c1ccccc1,1.9%,.,.,-21%
O=C1CCc2ccc(NC(=O)C3CC3)cc2N1,-2.3%,0%,1,4%
N#Cc1ccc2[nH]c(CO)c(-c3ccccc3)c2c1,3.3%,6%,.,-3%
CCCN(C(=O)C(=O)Nc1ccc2nc3n(c(=O)c2c1)CCCCC3)c1ccc(OCC)cc1,0.0%,24%&25%,3,8%
CC1CN/C(=C\C(=O)c2ccc(Br)cc2)C(=O)N1 (centres undefined),-0.6%,-31%,2,-3%
COc1ccc(C(=O)CC(=O)C(=O)Nc2cc(Cl)c(OC)cc2OC)cc1,-1.3%,1%,-4,-25%
C=CCN(CC=C)CCOc1cc(C)ccc1[N+](=O)[O-],-5.1%,-20%,-6,-2%
CCC(C)[C@H](NC(=O)N1CC(=O)Nc2ccccc21)C(=O)Nc1ccccc1C (some centres undefined),-1.8%,24%,.,5%
CCN(CC)C(=O)C1CCCN(Cc2cccc(F)c2)C1 (centres undefined),-5.4%,-4%,5,29%
COc1ccc(S(=O)(=O)CCc2nnc(NC(C)=O)s2)cc1,-3.3%,0%,-6,1%
O=C(Nc1ncccc1O)c1ccc(NS(=O)(=O)c2ccc3[nH]c(=O)[nH]c3c2)cc1,1.0%,.,.,-8%
CCOC(=O)N1CCN(S(=O)(=O)c2c(C)nc3sccn3c2=O)CC1,0.9%,-3%,.,7%
CCSC(=S)c1c(C)[nH]n(-c2ccccc2)c1=O,-4.9%,7%,-1,0%
Cc1cccc(NS(=O)(=O)c2cnc(Cl)c(Br)c2)n1,-0.7%,-3%,0,1%
Cc1cc(=O)oc2cc(OCC(=O)N3CCN(c4ccccc4)CC3)ccc12,2.9%,.,.,14%
O=C1CC(c2ccccc2)=NN1c1ccccc1,1.2%,.,.,0%

# New compounds follow.
SMILES,Rango complex inh,miR-21 FLuc,GLA inh pH 4.5,Rango dissoc inh
COc1ccc(CN2CCN(c3cc(C)nc4c5c(C)cc(C)nc5nn34)CC2)cc1F,?,-5%,-3,-6%
CCSc1nnc(NC(=O)NC(CC)(C(F)(F)F)C(F)(F)F)s1,3.5%,?,-4,-9%
CC(=O)CSc1ccc(S(=O)(=O)N2CCN(C)CC2)cn1,-2.9%,.,.,-3%
Cc1cc(=O)oc2c1c(C)nn2-c1ccc(Br)cc1,1.2%,-1%,-4,0%
CCc1ccc(OCC(=O)OCC(=O)NC2CCCC(C)C2C)cc1 (centres undefined),1.8%,.,.,29%
CCOC(=O)c1c(CSc2ccccc2)n(C)c2ccc(O)c(CN3CCOCC3)c12,-0.6%,5%,-5,-13%
Cn1cc(CNC(=O)C2c3ccccc3Oc3ccccc32)cn1,-2.2%,0%,1,1%
Cc1cc(N)n(-c2ccc(Cl)cc2)n1,-1.3%,-1%,3,0%
O=[N+]([O-])c1ccccc1O[C@@H]1O[C@H](CO)[C@H](O)[C@H](O)[C@H]1O,-3.8%,0%,-1,-9%
COC(=O)c1ccccc1S(=O)(=O)NNC(=O)c1nn(C)c(=O)c2ccccc12,1.5%,.,.,7%
O=C(NCc1ccco1)c1ccc(Cn2cc([N+](=O)[O-])cn2)o1,0.4%,-2%,-2,-12%
CC1(C)Cc2cccc(OCC(=O)OCC(=O)Nc3ccc(C(N)=O)cc3)c2O1,2.4%,.,.,-8%
O=C(COC(=O)/C=C/c1cccc(C(F)(F)F)c1)Nc1cccc2ccccc12,4.8%,3%,-2,16%
COCCn1c(-c2ccc(OC)cc2)cnc1SCC(=O)Nc1cccc2ccccc12,-8.7%,-9%,-14,-2%
Cn1c(SCC(=O)NCc2ccccc2)nnc1C1CC1,1.3%,0%,2,-6%
CC1=C(C(=O)OCc2ccccc2)C(c2ccco2)n2ncnc2N1 (centres undefined),4.2%,9%,3,5%
CN(CC(=O)Nc1ccc(F)c(F)c1F)C(=O)CC1OC(=O)c2ccccc21 (centres undefined),3.7%,.,.,-7%
O=C(NC(=S)NCc1nc2ccccc2[nH]1)c1ccc(F)cc1,1.5%,-23%,-4,-2%
CCCCSc1nnc2c(n1)[nH]c1ccccc12,-3.6%,-52%,-2,-11%
CCOC(=O)c1c(S(=O)(=O)N2CCCC(C(=O)Nc3ncccc3C)C2)c(C)n(C)c1C (centres undefined),0.7%,2%&1%,.,10%
COc1ccc(-c2c(C(C)=O)c(C)nc3sc4c(=O)n(-c5ccc(C)cc5)nnc4c23)cc1,0.8%,-5%,-4,-2%
O=c1c2nnn(Cc3ccc(Cl)cc3)c2ncn1Cc1ccc(F)cc1,2.1%,-2%,-15,-9%

# Some of the compounds tested (hit frequency here may not be typical).
